From PubChem
NIH3T3 tox – Cytotoxic Profiling in NIH 3T3 Cell Line of Diverse Libraries Using Quantitative High-Throughput Screening | AID 1345082, 2018 | hit rate 4.3% among 94,000 | NIH 3T3 viability, CellTiter-Glo ATP luminescence, 48-72 h | Potency, µM (titrated, usually from 96.7 µM), for the others: at the highest dose activity change, negative = cytotoxicity, hits mostly inhibitors; also: potency is read from the fitted curve at half-maximal effect; nearly all actives have a fitted effect of over 55% in size
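ATP-dependent luminescence (CellTiter-Glo) served as the viability signal for NIH 3T3 cells treated with compound for 48 or 72 hr at 37 °C.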
Luciferase inh – Firefly luciferase inhibition profiling of diverse chemical library using quantitative high-throughput screening | Potency, µM (doses to about 115 µM), for inactives: top-dose activity change, negative = inhibition, hits mostly inhibitors | Luciferin 4-monooxygenase (Photinus pyralis), P08659 | hit rate 2.5% among 76,000 | AID 1347043, 2019 | purified P. pyralis luciferase, luminescence, biochemical; also: potency is read from the fitted curve at half-maximal effect; nearly all actives have a fitted effect of over 65% in size
Target sequence (P08659 whole entry, looked up): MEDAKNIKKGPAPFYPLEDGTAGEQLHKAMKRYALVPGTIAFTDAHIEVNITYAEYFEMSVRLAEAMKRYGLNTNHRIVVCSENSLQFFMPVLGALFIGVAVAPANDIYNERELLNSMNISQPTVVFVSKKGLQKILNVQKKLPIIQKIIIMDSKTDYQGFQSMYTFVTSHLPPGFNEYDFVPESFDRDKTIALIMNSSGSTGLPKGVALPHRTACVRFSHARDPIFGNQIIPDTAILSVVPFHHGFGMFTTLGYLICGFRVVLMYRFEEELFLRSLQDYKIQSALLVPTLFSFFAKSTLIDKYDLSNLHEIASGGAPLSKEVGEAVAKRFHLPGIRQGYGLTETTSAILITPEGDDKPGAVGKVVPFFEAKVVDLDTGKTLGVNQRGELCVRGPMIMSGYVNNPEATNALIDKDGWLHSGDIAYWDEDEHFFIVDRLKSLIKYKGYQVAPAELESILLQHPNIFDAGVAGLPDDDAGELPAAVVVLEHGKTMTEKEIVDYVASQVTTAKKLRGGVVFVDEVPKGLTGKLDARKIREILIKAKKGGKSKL
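Luminescence read by CCD imaging after purified firefly luciferase (10nM final) was added to substrate buffer holding 10uM D-luciferin and 10uM ATP, pH 7.5, pre-dosed with compound.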
IP6K1 inh – Primary qHTS assay for small molecule inhibitors of Inositol hexaphosphate kinase 1 (IP6K1). Inositol hexakisphosphate kinase 1 (Homo sapiens), Q92551. IP6K1 kinase, ADP-Glo luminescence, 2 h; hits give low values. activity change, % (series mostly up to about 58 µM). hit rate 0.81% among 140,000. AID 1645851, 2021; in the data active = activity change below about -25%
Target sequence (Q92551 whole entry, looked up): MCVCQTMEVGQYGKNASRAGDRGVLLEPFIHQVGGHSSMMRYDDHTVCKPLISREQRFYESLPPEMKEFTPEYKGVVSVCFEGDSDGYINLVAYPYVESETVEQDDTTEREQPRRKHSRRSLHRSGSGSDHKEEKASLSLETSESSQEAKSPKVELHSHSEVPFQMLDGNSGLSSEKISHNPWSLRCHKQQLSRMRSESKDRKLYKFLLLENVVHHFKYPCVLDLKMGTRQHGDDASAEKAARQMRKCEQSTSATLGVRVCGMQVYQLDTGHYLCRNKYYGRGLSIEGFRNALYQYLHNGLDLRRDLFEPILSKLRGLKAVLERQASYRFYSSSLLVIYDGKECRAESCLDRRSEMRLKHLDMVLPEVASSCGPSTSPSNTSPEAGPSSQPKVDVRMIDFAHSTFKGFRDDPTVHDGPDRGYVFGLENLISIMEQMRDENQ
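ADP-Glo luminescence measures ADP made by human IP6K1 during a 2 h RT reaction with ATP/IP6 (mix at 1.3 mM/130 uM); top library doses 57.5 and 19.1 uM final.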
HEK293 tox – Cytotoxic Profiling in HEK 293 Cell Line of Diverse Libraries Using Quantitative High-Throughput Screening; HEK 293 viability, ATP luminescence (CellTiter-Glo), 48-72 h; Potency, µM (highest dose often 115 µM), for the others: top-dose activity change, negative = cytotoxicity, actives largely listed as inhibitors; hit rate 6.6% among 94,000; AID 1345083, 2018; also: potency is read from the fitted curve at half-maximal effect; nearly all actives have a fitted effect of over 60% in size
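ATP-coupled CellTiter-Glo luminescence served as viability read-out, recorded 10 min after reagent addition at room temperature. HEK 293 cells, 250 cells/well, had been incubated with pintool-transferred compound for 48 or 72 hr at 37 degree Celsius.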
SNCA viab count – GF-AFC viability counterscreen for inhibitors of alpha-synuclein gene (SNCA) expression; HEK-293-SNCA-luc viability, GF-AFC fluorescence, 24 h; Potency, µM (doses to about 57.1 µM), without a hit: at the top dose activity change, negative = cytotoxicity, usual class: cytotoxic; hit rate 0.12% among 150,000;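 also: potency is read from the fitted curve at half-maximal effect; 0% = DMSO-treated cells and -100% = medium-only wells without cells; nearly all actives have a fitted effect of over 30% in size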
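HEK-293-SNCA-luc cells (1500/well) plated 24 h, then exposed 24 h to a dilution series; GF-AFC added 30 min at 37C, fluorescence 405/540 nm; normalised to medium-only and DMSO wells, Hill fit.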
SNCA expr inh – Primary qHTS assay for inhibitors of alpha-synuclein gene (SNCA) expression; Potency, µM (doses to about 57.2 µM), inactives show at the top dose activity change, negative = inhibition, actives largely listed as inhibitors; AID 1671194, 2021; HEK-293 SNCA-luciferase knock-in, luminescence, 24 h; hit rate 0.17% among 140,000;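 also: potency is read from the fitted curve at half-maximal effect; plate controls were DMSO cells for no effect and cell-free wells for full effect; nearly all actives have a fitted effect of over 45% in size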
Active calls of the source: *; i = inactive; ? = inconclusive; nt = not tested or not shown; [ ] = remark or other dose. Unless noted, calls follow the shape of the dose curve; as a rule, active = well fitted curve in the direction sought with a large enough effect; inconclusive = small, poorly fitted or top-dose-only effect, or another doubt; inactive = no such curve, though single readings can be large; an effect the other way counts as inactive or inconclusive. Unless noted, % is scaled to controls: 0 for no effect and ±100 for the full control effect. A portion of the library, so the mix of outcomes need not match the whole.

SMILES | NIH3T3 tox | Luciferase inh | IP6K1 inh | HEK293 tox | SNCA viab count | SNCA expr inh
CCc1nc(C)c(C(=O)NCc2cccnc2Oc2ccc(F)c(F)c2)o1 | ? | 0% | 6 | ? | 3% | -1%
COc1ccc(-c2ccc3nc(-c4cccc(Br)c4)oc3c2)c(OC)c1OC | -21% | -6% | -1 | -26% | -1% | ?
CCCc1nn(-c2cccc(F)c2)c(OC(C)=O)c1-c1ccc(NC(C)=O)cc1 | -23% | -5% | -9 | -32% | 5% | -12%
O=C(O)Cn1nc(-c2ccncc2)nc1C1CCOC1 (stereo unspecified) | -2% | 9% | -7 | ? | -6% | -15%
N#Cc1cccnc1-c1ccc(C(=O)O)cc1 | -6%[138 µM] | nt | -13 | 3%[172 µM] | 12%[87.6 µM] | -11%[87.6 µM]
CC(Cc1cnccn1)Nc1ccc(-c2nc(-c3cccc(Cl)c3)no2)cn1 (stereo unspecified) | ? | 3.5µM* | 6 | ? | 1% | 148%[activator]
O=S(=O)(c1cccc2c1OCCO2)N1CCCn2nc(CO)cc2C1 | -20% | -4% | 27 | -1% | -2% | -3%
Cc1ccccc1C(=O)N1C(C(=O)N2CCCC2)COC12CCN(C(=O)Cc1ccccc1)CC2 (stereo unspecified) | -15% | -12% | -12 | ? | 4% | -1%
CN(C)C(=O)c1nc2sccn2c1-c1ccc(F)cc1 | -16% | nt | 12 | -14% | 5% | -6%
O=C(CC[C@@H]1CNC(=O)[C@@H]2C[C@H](NC(=O)Nc3cccc(Cl)c3)CN12)NCc1ccccc1 | -6% | 7% | 17 | -11% | 5% | -8%
COc1ccc(CN2CC(Oc3ccc(F)c(F)c3)C2)cc1 | ? | nt | -4 | ? | 6% | -25%
CN1CC(=O)N(C2CCCNC2)Cc2c(NCC3CCCCCC3)ncnc21 (stereo unspecified) | ? | nt | 4 | ? | -4% | -7%
O=C(NC1CCCCC1)[C@@H]1C[C@@H](O)CN1C1CCN(C(=O)c2cccs2)CC1 | -21% | 7% | 2 | -19% | 4% | 7%
CN1C(=O)Cc2cc(C(=O)NCc3cccnc3)ccc21 | i | 6% | -3 | 16% | -4% | -15%
O=C(O)C[C@@H]1CCN(C(=O)Nc2ccccc2)C[C@@H]1CCN1CCN(c2ccc(F)cc2)CC1 | -29% | -7% | 4 | -19% | 11% | 5%
O=C(O)C[C@@H]1CCN(C(=O)c2ccco2)C[C@@H]1CCN1CCN(c2ccccc2)CC1 | -14%[174 µM] | 6%[172 µM] | -6 | -6%[172 µM] | 5%[87.6 µM] | -18%[87.6 µM]
O=C(CN1C(=O)NC2(CCOCC2)C1=O)N1CCN(c2ccccc2F)CC1 | -30% | -11% | 3 | -6% | -6% | ?
O=C(Nc1cccc(Cl)c1)c1nc2sccn2c1-c1ccc(F)cc1 | -30%[138 µM] | nt | 26 | ? | -9%[87.6 µM] | -12%[87.6 µM]
O=S(=O)(Cc1ccccc1)N1CCCC(Cc2noc(-c3cnccn3)n2)C1 (stereo unspecified) | i | 3% | 0 | 1% | -21% | -7%
O=C(NCCc1ccc(F)cc1)c1cc(CN2CCOCC2)on1 | -12% | -14% | -2 | -8% | 5% | 52%[activator]
CC(C)CCN1CC2(CCCN(C(=O)c3ccn(C)c(=O)c3)C2)CCC1=O (stereo unspecified) | -2% | 4% | 5 | -2% | -15% | -22%
COc1cccc(CC(=O)N2CCC3(CC2)NC(=O)N(c2ccc(F)cc2)N3)c1 | -27% | 2% | 5 | ? | 7% | -1%
Cc1cccc(NC(=O)N2CCCC(Cc3noc(-c4cnccn4)n3)C2)c1 (stereo unspecified) | -7% | -9% | 6 | -2% | -4% | 6%
COc1ccc(C(=O)N2CCCC(Cc3noc(-c4cnccn4)n3)C2)cc1 (stereo unspecified) | -11% | -9% | 10 | -5% | -11% | -26%
O=C(NC1CCCCC1)[C@@H]1C[C@@H](O)CN1C1CCN(C(=O)c2ccc3c(c2)OCO3)CC1 | -2% | 0% | -3 | i | -7% | 1%

Going on with the list:
SMILES | NIH3T3 tox | Luciferase inh | IP6K1 inh | HEK293 tox | SNCA viab count | SNCA expr inh
CCC(CC)NC(=O)CCC1CCN(C(=O)c2ccccc2Cl)CC1 | -2% | 40µM* | 25 | ? | -5% | 49%[activator]
CN(CCc1ccc(Nc2ncc(-c3cccnc3)s2)cc1)Cc1ccccc1 | nt | nt | -2 | nt | -34% | nt
CN(C)[C@@H]1[C@@H](NC(=O)c2cc(=O)n(-c3ccccc3)[nH]2)[C@H]2CCO[C@H]21 | -3% | 0% | 2 | i | -5% | -13%
Cc1cccc(OCCc2noc(C3CCCCN3C(=O)NC(C)C)n2)c1 (stereo unspecified) | ? | 4% | 37 | ? | 2% | 0%
Cn1cc([C@@H](NC(=O)c2cc(=O)n(-c3ccccc3)[nH]2)C2CC(O)C2)cn1 (stereo partly specified) | -11% | 5% | 8 | -3% | 3% | -14%
Cc1cc(CN)cc(C)c1NC(=O)c1ccc(-c2cc(Cl)ccc2Cl)o1 | nt | nt | -2 | nt | -18% | nt
O=C(CCC1CCN(C(=O)c2ccccc2Cl)CC1)N1CCc2ccccc2C1 | ? | -18% | 20 | ? | -6% | 11%
O=C(c1ccc(CO)o1)N1CCC2(CC1)[C@H](O)C[C@@H]2OCCO | -3% | 5% | -4 | -5% | 5% | 2%
Cc1ccc(CN2CC[C@@H]3[C@H]2C(=O)NC[C@H](CCC(=O)N2CCN(C)CC2)N3C)cc1 | -20%[174 µM] | 17%[172 µM] | 8 | -8%[172 µM] | 0%[87.6 µM] | -20%[87.6 µM]
O=C(Nc1ccc(F)cc1F)N[C@H]1C[C@H]2C(=O)NC[C@@H](CCC(=O)N3CCCCC3)N2C1 | -22% | -7% | 23 | 4% | -2% | 26%
COc1cccc(C2C(C#N)=C(N)Oc3n[nH]c(C)c32)c1 (stereo unspecified) | 4% | 9% | -5 | -7% | 0% | -17%
O=C(O)c1cc(-c2cccc(CO)c2)cc(S(=O)(=O)N2CCOCC2)c1 | -5% | 5% | 16 | -16% | -1% | -16%
CC(C)NS(=O)(=O)c1cc(C(=O)O)cc(-c2ccc3c(c2)OCO3)c1 | -29% | 9% | 7 | -6% | 12% | -5%
CC(C)CC(=O)N1CCC2(CC1)OCC(C(=O)N1CCOCC1)N2C(=O)c1ccccc1 (stereo unspecified) | 3% | -1% | -3 | 4% | 7% | ?
CC(=O)Oc1c(-c2ccc(NC(=O)c3cccs3)cc2)c(-c2cccc(F)c2)nn1-c1ccccc1 | ? | 0% | -3 | -10% | -18% | -22%
CC(=O)NCC1CN(S(=O)(=O)C(C)C)CC12CCCCC2 (stereo unspecified) | -22% | nt | 5 | -1% | 4% | -13%
O=C1CCN(C(=O)[C@@H]2CCCN2S(=O)(=O)c2ccc3c(c2)CCC3)CCCCCCN1 | -24% | -2% | 8 | -4% | 2% | 16%
Cn1cc(C(=O)N2CCC3(CC2)CC(=O)N(CCCc2ccccc2)C3)cn1 | -21% | -5% | 2 | ? | -13% | -21%
COc1ccc(CNC(=O)CNC(=O)c2cccc(-c3ccsc3)c2)cc1 | -29% | nt | 2 | ? | -1% | -7%
CC(C)(C)OC(=O)N1CCC(OCc2nc(-c3ccncc3)no2)CC1 | nt | nt | 20 | nt | -7% | nt
C/C=C/C1=CC2=C(CO1)C(=O)C(C)(OC(=O)c1c(C)cc(O)cc1OC)C(O)C2 (stereo unspecified) | nt | nt | -2 | nt | 0% | nt
Cc1n[nH]c(C)c1C(N)C(=O)N(Cc1cccnc1)Cc1cccnc1 (stereo unspecified) | -10% | -6% | 8 | 3% | -4% | 36%[activator]
O=C(N[C@H]1C[C@H]2C(=O)NC[C@@H](CCC(=O)N3CCCCC3)N2C1)c1ccc(F)c(Cl)c1 | -4% | -7% | -1 | 4% | 6% | -16%
CC1CCN(C(=O)CCNc2c(-c3ccc(F)cc3)nc3cnccn23)CC1 | -20% | -3% | 1 | -23% | ? | 7%
COc1ccccc1N1CCN(CC[C@H]2CN(C(=O)CC(C)(C)C)CC[C@H]2CC(=O)O)CC1 | i | -8% | 11 | 1% | 2% | -19%

(listing goes on)
SMILES | NIH3T3 tox | Luciferase inh | IP6K1 inh | HEK293 tox | SNCA viab count | SNCA expr inh
CCOc1cc(-c2nc3ccc(-c4ccc(OC)c(OC)c4OC)cc3o2)ccc1OC | -17% | -17% | -12 | -27% | 4% | -16%
COc1ccc(OC2CN(Cc3ccc(C#N)cc3)C2)cc1 | -3% | nt | -3 | -19% | 4% | 18%
COCCNC(=O)[C@@H]1C[C@@H](O)CN1C1CCN(C(=O)c2cc(F)ccc2F)CC1 | 1% | 6% | 5 | i | 7% | 11%
CCOC(=O)c1ccc(CNC(=O)N2CCC3(CC2)CN(c2ccccc2)C3=O)cc1 | ? | -1% | 18 | ? | 6% | -6%
COc1cccc(CCNC(=O)c2c(C)noc2-c2ccc(OC(F)(F)F)cc2)c1 | -27% | -18% | 7 | ? | ? | 16%
CC(=O)Nc1ccc(-c2c(C(C)C)nn(-c3cccc(F)c3)c2OC(C)=O)cc1 | -5% | -4% | -1 | -21% | 7% | -15%
O=C(CSc1ccc(Cl)cc1)N[C@@H]1COCC[C@@H]1OCC1CC1 | -25% | 5% | 22 | -21% | -4% | ?
COc1cc2c(cc1CN1CCn3nc(C(O)CO)cc3C1)OCCO2 (stereo unspecified) | 0% | 2% | 1 | i | -3% | 11%
O=C(NC1CCN(c2cc(-c3ccccc3)[nH]n2)C1)c1ccccc1 (stereo unspecified) | -1% | 5% | 0 | -12% | -8% | 0%
O=C(CCCn1cncn1)N1CCCC(CCc2ccccc2C(F)(F)F)C1 (stereo unspecified) | ? | -9% | -1 | ? | 7% | ?
Cc1nnc(-c2cc(C(=O)NCCN(C)C)ccn2)n1CCc1ccccc1 | -24%[138 µM] | -1%[172 µM] | 11 | ? | 22%[87.6 µM] | 32%[activator][87.6 µM]

3 of these compounds in another layout:
Compound	NIH3T3 tox	Luciferase inh	IP6K1 inh	HEK293 tox	SNCA viab count	SNCA expr inh
CCCc1nn(-c2cccc(F)c2)c(OC(C)=O)c1-c1ccc(NC(C)=O)cc1	-23%	-5%	-9	-32%	5%	-12%
O=C(O)Cn1nc(-c2ccncc2)nc1C1CCOC1 (stereo unspecified)	-2%	9%	-7	?	-6%	-15%
N#Cc1cccnc1-c1ccc(C(=O)O)cc1	-6%[138 µM]	nt	-13	3%[172 µM]	12%[87.6 µM]	-11%[87.6 µM]

A second format for some results above.
Value order – NIH3T3 tox | Luciferase inh | IP6K1 inh | HEK293 tox | SNCA viab count | SNCA expr inh
> CC(=O)Nc1ccc(-c2c(C(C)C)nn(-c3cccc(F)c3)c2OC(C)=O)cc1
    -5% | -4% | -1 | -21% | 7% | -15%
> O=C(CSc1ccc(Cl)cc1)N[C@@H]1COCC[C@@H]1OCC1CC1
    -25% | 5% | 22 | -21% | -4% | ?
> COc1cc2c(cc1CN1CCn3nc(C(O)CO)cc3C1)OCCO2 (stereo unspecified)
    0% | 2% | 1 | i | -3% | 11%
> O=C(NC1CCN(c2cc(-c3ccccc3)[nH]n2)C1)c1ccccc1 (stereo unspecified)
    -1% | 5% | 0 | -12% | -8% | 0%
